HSV augment = increases HSV replication in cells; actives 0.005% (n = 220,000); HSV replication augmentation in cells, fold increase; AID 1956; maximum fold increase;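 active = peak rise of 1.5-fold or more in the series; inconclusive = self-fluorescent or not available for retest; tested in PC3 cells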;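 also: first round at 10 µM; read as green reporter fluorescence; hits show the peak of a series up to 25 µM; 1 = signal of infected wells without compound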
GALR2 agonist = activates the human galanin receptor 2. O43603. GALR2-expressing cells, agonist activation read-out. activation, %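 (tested at 5 µM)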. actives 0.48% (n = 140,000);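 active = above mean plus 3 SD of all compounds, about 5% in these data, not always enough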;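 also: 0% = vehicle buffer wells and 100% = reference agonist at full effect; tested in CHO reporter cells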
INS promoter inh = TRM-6 insulin promoter activity inhibition; TRM-6 cells (human fetal islet line), insulin promoter-eGFP reporter, imaging; reporter expression induced with tamoxifen; inhibition, % at 2 µM; actives 0.9% (n = 130,000);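 active = inhibition above the mean plus 3 SD, with well images judged a real hit on visual review, cut at about 60% in these data, passing the limit was not always enough; inconclusive = inhibition over the cutoff but images rejected on review; inactive = inhibition not above the cutoff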
PKD1 inh = PKD1 (human) kinase inhibition | PKD1 kinase fluorescence polarization assay | Q15139 | AID 797 | inhibition, %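 (about 10 µM by stock and volumes)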 | actives 0.056% (n = 200,000);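 active = inhibition of 50% or more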;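 also: controls were vehicle for no effect and a reference inhibitor for full effect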
Target sequence (Q15139 whole entry, looked up): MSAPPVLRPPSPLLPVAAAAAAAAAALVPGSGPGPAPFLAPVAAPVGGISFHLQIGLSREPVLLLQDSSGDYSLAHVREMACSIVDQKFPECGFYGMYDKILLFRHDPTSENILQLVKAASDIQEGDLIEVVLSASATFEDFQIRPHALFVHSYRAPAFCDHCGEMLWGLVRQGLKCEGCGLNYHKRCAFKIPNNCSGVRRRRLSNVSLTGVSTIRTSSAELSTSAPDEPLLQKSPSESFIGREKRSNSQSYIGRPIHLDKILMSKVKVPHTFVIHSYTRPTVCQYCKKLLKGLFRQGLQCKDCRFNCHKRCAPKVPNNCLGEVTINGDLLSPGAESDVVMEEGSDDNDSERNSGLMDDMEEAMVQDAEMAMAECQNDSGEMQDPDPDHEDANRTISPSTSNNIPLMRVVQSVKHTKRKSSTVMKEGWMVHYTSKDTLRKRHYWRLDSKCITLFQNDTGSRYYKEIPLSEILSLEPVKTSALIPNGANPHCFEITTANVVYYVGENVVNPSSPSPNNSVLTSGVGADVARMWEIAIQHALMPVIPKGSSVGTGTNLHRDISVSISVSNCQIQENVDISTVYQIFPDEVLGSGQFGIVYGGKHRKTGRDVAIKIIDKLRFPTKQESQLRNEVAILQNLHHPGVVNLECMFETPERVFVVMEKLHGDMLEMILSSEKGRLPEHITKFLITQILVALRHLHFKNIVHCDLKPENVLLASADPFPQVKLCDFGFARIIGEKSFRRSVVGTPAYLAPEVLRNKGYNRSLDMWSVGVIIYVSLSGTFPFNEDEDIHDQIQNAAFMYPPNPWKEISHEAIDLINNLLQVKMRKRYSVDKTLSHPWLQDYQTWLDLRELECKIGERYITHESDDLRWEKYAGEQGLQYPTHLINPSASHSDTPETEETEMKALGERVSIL
RGS16-Gao HTS = regulators of human RGS16-Galphao interaction; O15492+P09471; bead-based flow cytometry RGS16-Galphao binding, fluorescence; actives lie on both sides; binding response (% of control), % at 10 µM; actives 0.38% (n = 220,000);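 active = below 25% or above 175%, edge rows of some plates excepted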;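 also: Galphao activated by GDP with aluminum fluoride before binding; 100% = wells without compound and 0% = beads without RGS; some results beyond the cut were filed as inactive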
INS promoter inh cell count = second read-out of INS promoter inh, no call of its own (marks repeat the call); normalized cell count, %; measured here: cell count, toxicity; reference of the scale not given here;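 cells exposed to compound for 48 h; stained nuclei by imaging scaled within each plate; lower means fewer cells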
HSV augment primary fold = also measured in HSV augment; calls as there; fold increase; compound at 10 µM; measured here: primary screen fold increase 10 uM; tested in PC3 cells;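 GFP signal in the first replicate; 1 = infected wells without compound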
* hit, by the source's call; i = inactive; ? = inconclusive; . = not tested or not shown.

SMILES	HSV augment	HSV augment primary fold	GALR2 agonist	INS promoter inh	INS promoter inh cell count	PKD1 inh	RGS16-Gao HTS
CCOc1cc(C(=O)NCc2nnc(SCC(=O)OC)n2C)cc(OCC)c1OCC	.	.	-1.1	.	.	3	98
O=C(Nc1ccc(SC(F)F)cc1)C1=COCCO1	i	0.9	-3.0	48	113	-7	103
CCn1c(SCC(N)=O)nnc1-c1ccc(S(=O)(=O)N2CCN(C)CC2)cc1	i	0.86	-1.5	-117	98	-1	98
O=C(CSC1=NCCS1)Nc1nc2c(s1)CCCC2	i	0.97	-1.0	-6	82	3	92
CC(NC(=S)Nc1c(Br)cccc1OC(F)F)C(C)(C)C (stereo not given)	i	1	-1.6	3	77	-2	98
O=C(COC(=O)CSc1cc(Cl)ccc1Cl)Nc1ncc(C(F)(F)F)cc1Cl	i	1.1	0.3	.	.	-5	98
Clc1ccc2nc3c4ccccc4cnn3c2c1	i	0.97	.	33	107	2	94
Cc1ccc(S(=O)(=O)NCC(=O)N/N=C/c2ccc(Cl)cc2)cc1	i	1.1	0.1	4	156	-1	108
CCCCCCNS(=O)(=O)c1ccc(Cl)s1	i	1.1	-0.7	30	127	3	104
Cc1ccc(/C=C/C(=O)O)cc1S(=O)(=O)Nc1ccc2c(c1)OCO2	i	1	.	.	.	6	105
Cn1c(SCc2nc3cc(C(=O)O)ccc3c(=O)[nH]2)nnc1C(F)(F)F	i	0.98	.	.	.	-3	100
c1cc2c(cc1-c1csc(NNC3=NCCCCC3)n1)OCCO2	i	0.96	.	7	133	0	93
CCOc1ccc(OCC)c(Nc2cc(C)nc3nc(C)nn23)c1	.	.	1.8	7	103	1	50
COc1ccc([N+](=O)[O-])cc1N(CC(=O)NCCC1=CCCCC1)S(C)(=O)=O	i	0.91	-0.9	43	133	-10	43
O=C(CCC(=O)OCC(=O)c1ccc(-c2ccccc2)cc1)Nc1cccc2cccnc12	i	1.1	-2.2	-15	102	0	93
CCn1c(C)nc2cc(C(=O)OC(C(F)(F)C(F)F)C(F)(F)C(F)F)ccc21	.	.	-0.3	35	122	-3	106
CC1=CS(=O)(=O)CC1Sc1nc2ccccc2[nH]1 (stereo not given)	i	0.72	-1.8	.	.	-2	106
COc1ccc(NC(=O)c2c(NC(=O)CCC(=O)O)sc3c2CCCCC3)cc1	i	1	.	.	.	-4	100
O=C(CCl)Nc1ccc(N=Nc2ccccc2)cc1	i	0.89	-0.6	17	90	-14	104
Cc1ccc2nc3sc(C(=O)NCc4ccco4)c(N)c3cc2c1	i	1.1	-1.5	-6	74	-3	47
COc1cc2c(cc1NC(=O)c1cccnc1)oc1ccccc12	i	0.9	-1.7	-51	32	-11	101
O=C1C2C(C(=O)N1c1ccncc1)C1C=CC2C12CC2 (stereo not given)	i	0.94	-0.8	.	.	-4	109
COC(=O)n1ccc(C(=O)Nc2ccccc2F)n1	i	1.1	-1.5	.	.	-4	108
O=C(CCc1nnc(CCCc2ccccc2)o1)NCCN1CCOC1=O	i	1	.	.	.	-2	98
COC(=O)CCn1nc(-c2ccc(Cl)cc2)c2ccccc2c1=O	i	1	.	.	.	-12	107
CC(C)(C)c1ccc(/C=C/C(=O)N2CCc3ccccc3C2)cc1	i	0.74	-1.5	-11	128	14	101
COc1ccc(C(=O)CN2C(=O)NC(C)(c3ccc(C)cc3)C2=O)cc1OC (stereo not given)	i	0.97	10*	-100	70	0	98
COC(=O)CN(c1ccccn1)S(=O)(=O)c1ccccc1	i	1	-1.1	3	100	-13	103
CCCNS(=O)(=O)c1ccc(OCC(=O)N(C)Cc2ccccc2)cc1	i	0.76	.	.	.	.	112
Cc1ccc(CNc2oc(-c3cccs3)nc2C#N)cc1	.	.	-0.9	43	119	-3	96
Cc1cc(C)c(C(=O)COC(=O)c2ccc([N+](=O)[O-])o2)cc1C	i	0.95	.	25	124	6	105
COc1cccc(N2CCN(CC(=O)c3c[nH]c4ccc(OC)cc34)CC2C)c1 (stereo not given)	i	0.82	-2.8	48	130	3	104
COCC(=O)Nc1sc2c(c1C(=O)OC)CCC(C)C2 (stereo not given)	i	0.96	0.2	18	94	-3	98
Cc1ccc(NC(=O)CO/N=C(\N)c2nonc2N)cc1	i	0.93	-4.8	-25	140	-5	130
O=C(CSc1nc2ccccc2c(=O)n1-c1ccccc1Cl)Nc1cccc(S(=O)(=O)N2CCOCC2)c1	.	.	0.4	8	99	-10	94
C[N+](C)(C)C(Cc1ccccc1)C(=O)[O-] (stereo not given)	i	1	.	.	.	.	104

Record cards (already shown). Order of values: HSV augment	HSV augment primary fold	GALR2 agonist	INS promoter inh	INS promoter inh cell count	PKD1 inh	RGS16-Gao HTS
O=C(CSc1nc2ccccc2c(=O)n1-c1ccccc1Cl)Nc1cccc(S(=O)(=O)N2CCOCC2)c1 as listed: .	.	0.4	8	99	-10	94
COc1ccc(C(=O)CN2C(=O)NC(C)(c3ccc(C)cc3)C2=O)cc1OC (stereo not given) as listed: i	0.97	10*	-100	70	0	98

(more compounds)
SMILES	HSV augment	HSV augment primary fold	GALR2 agonist	INS promoter inh	INS promoter inh cell count	PKD1 inh	RGS16-Gao HTS
O=C1CCCc2[nH]nc(-c3cccnc3)c21	i	0.92	-1.1	-11	116	0	101
C=CCNC(=O)c1oc2ccc(S(=O)(=O)N(CC)CC)cc2c1C	i	0.91	-1.6	.	.	-14	88
S=c1[nH]c(-c2ccccc2)cn1/N=C/c1cccnc1	i	1	.	.	.	.	95
CSc1nncn1/N=C/c1ccc([N+](=O)[O-])cc1	i	0.97	.	.	.	-2	100
O=C(COC(=O)C1CCN(S(=O)(=O)c2cccc3cccnc23)CC1)c1ccc([N+](=O)[O-])cc1	i	0.88	-1.8	-4	84	-7	100
CCCCN(CCCC)C(=S)NC(=O)c1ccccc1Cl	i	1	-0.6	-91	103	-5	102
CN(C)c1nc2ncn(Cc3ccccc3)c2c(=O)[nH]1	i	0.93	.	.	.	.	97
COc1cccc(CC(=O)Nc2ccc(S(=O)(=O)Nc3nc(C)cc(C)n3)cc2)c1	i	0.96	.	-55	118	-7	99
Cc1ccc(NC(=O)COC(=O)C2CCC(=O)N2)c([N+](=O)[O-])c1 (stereo not given)	i	0.81	.	-24	43	2	98
COc1cc(CC(=O)Nc2cccc(SC)c2)cc(OC)c1OC	i	0.94	.	75*	101*	-9	108
CC(=O)c1ccc(S(=O)(=O)N2CCN(c3nc4c(C)c(C)ccc4cc3C#N)CC2)cc1	i	0.95	-0.2	-394	26	2	.
Cc1ccc(C(=O)Nc2ncc(Cc3ccccc3)s2)o1	i	0.98	0.5	.	.	3	102
O=C(CN1C(=O)NC2(CCCCC2)C1=O)Nc1cccc(S(=O)(=O)N2CCOCC2)c1	i	1.1	.	.	.	.	102
Cc1ccc(C(C)C)c(OCC(=O)Nn2c(C)nc3ccccc3c2=O)c1	i	0.95	-1.7	20	125	-2	107
COC(=O)C(C)(C)ONC(=O)Nc1ccccc1[N+](=O)[O-]	i	0.99	.	.	.	-4	100
CC1CCCCC1NC(=O)/C(C#N)=C/c1ccccc1F (stereo not given)	i	0.57	-0.6	7	97	-2	105
Cc1ccc(C(=O)OCn2ncc(Cl)c(Cl)c2=O)cc1	i	0.38	-2.0	-194	10	-6	98
O=C(NCCc1c[nH]c2ccccc12)c1cc2sccc2n1Cc1ccccc1	i	0.65	-1.9	-83	79	-3	105
CCOC(=O)c1c(NC(=O)Cn2nc(C(=O)O)c3ccccc3c2=O)sc(C)c1C	i	1	.	.	.	.	107
Cc1ccccc1NC(=S)Nc1ccc2cn[nH]c2c1	i	0.98	.	.	.	-4	103
Cc1cc(C(=O)COC(=O)C2CC2)c(C)n1-c1ccc(F)cc1	i	1.1	.	33	101	-8	109
Cc1noc(C)c1CSc1ncnc2sc3c(c12)CCC3	i	0.94	-0.7	.	.	-6	113
COc1ccc(C2CC(=O)C3=C(C2)Nc2ccccc2N(C(=O)CCC(=O)O)C3c2ccc(F)cc2)cc1 (stereo not given)	i	0.96	.	.	.	.	104
O=C(CCl)NCc1cc(-c2ccc(Cl)cc2)no1	i	0.85	.	33	83	2	99
CCOC(=O)/C(C#N)=C1/SC(CC)C(=O)N1c1ccc(C)cc1 (stereo not given)	i	0.8	-0.6	.	.	1	128
Cc1ccc(C(=O)C[n+]2ccc3ccccc3c2)cc1	i	1	.	-33	68	4	100
OC(c1cccnc1)c1cccs1 (stereo not given)	i	0.7	-0.7	.	.	4	100
C/C(=N\OCC(=O)N/N=C/c1ccc(C)cc1O)c1cccs1	i	0.99	-1.8	-41	89	-1	127
S=c1[nH]nc(Cn2nnc3ccccc32)n1-c1ccccc1	i	0.96	.	.	.	-1	92
O=C(O)CCC(NC(=O)C(Cc1ccc2c(c1)OCO2)NC(=O)c1ccccc1)C(=O)O (stereo not given)	i	0.8	1.0	43	104	-4	104
COC(=O)c1[nH]c(C)c(/C(O)=C2\C(=O)C(=O)N(CCN(C)C)C2c2ccco2)c1C (stereo not given)	i	0.96	-0.7	-16	103	-9	174
CC(=O)N1CCN(c2ccc(NCc3ccc4c(c3)OCO4)cc2)CC1	?	.	-0.8	0	160	-8	47
C=CCC(=O)N1CCCC(CCC(=O)NCc2ccccc2F)C1 (stereo not given)	i	0.99	.	.	.	-2	112
COc1ccc(C2C(C#N)=C(N)OC3=C2C(=O)CC(C)(C)C3)cc1 (stereo not given)	i	1	.	.	.	-5	101
Cc1cc(C)cc(Nc2cnn(C34CC5CC(CC(CC(=O)O)(C5)C3)C4)c(=O)c2Cl)c1	i	0.87	-5.3	29	31	2	.
Cc1ccc(-n2cc(C(=O)c3ccc(F)cc3)nn2)cc1Cl	.	.	-1.5	.	.	1	99
Cc1nn(Cc2ccc(Cl)cc2)c(C)c1NC(=O)c1ccc([N+](=O)[O-])cc1	i	1.1	-2.2	.	.	9	103
COc1ccc(OCC(=O)OCC(=O)NCc2ccc(F)cc2)cc1	i	0.97	-0.4	.	.	-6	131
CCOC(=O)C1(CCCc2ccccc2)CCN(C(=O)COC)CC1	i	0.96	.	.	.	.	101
Cc1nc2ccccc2c(=O)n1/N=C/c1ccco1	i	0.96	.	.	.	3	98
Cc1cccc(OCc2nc(C#N)c(NCc3ccc4c(c3)OCO4)o2)c1	i	0.99	-2.5	-21	36	1	105
Cc1ccc(C)c(-n2nnnc2SCC(=O)Nc2c(C)n(C)n(-c3ccccc3)c2=O)c1	i	0.94	-1.5	-6	91	-1	106
O=C(CN1CC[C@@]2(O)CCCC[C@H]2[C@@H]1c1ccc(F)cc1)NCc1ccco1	i	1.3	.	.	.	.	102
O=C(N/N=C/c1ccco1)c1cc(-c2ccc(Cl)s2)[nH]n1	i	0.92	.	33	72	-3	107
O=C(CNC1=NCCC1)c1ccc2c(c1)OCCO2	i	1.1	-2.1	13	70	-30	96
O=C(Cc1csc(Nc2nc(=S)[nH]c3ccccc23)n1)NCc1ccc(Cl)cc1	i	0.99	-1.7	-5	47	-4	102
C=CCOc1ccc(C=Nc2ccc(Cl)cc2)c(O)c1	i	1	-1.6	-54	137	-4	109
CCOc1ccc(Nc2nc3c(c(=O)[nH]2)CCC3)cc1	i	0.92	-0.3	.	.	-5	96
O=c1cc(-c2ccccc2)[nH]n1-c1nc2ccccc2[nH]1	?	.	-1.6	-18	112	2	90
Cc1ccc(C)c(NC(=S)NCc2ccc3[nH]c4c(c3c2)CCCC4)c1	i	0.97	-0.4	27	101	6	100
N=C1C(=O)OCC1c1ccccc1NC(=O)CN1CCOCC1 (stereo not given)	i	0.91	-0.8	20	103	-4	106
C=CCc1ccc(OCCCCOc2ccc(C(=O)O)cc2)c(OC)c1	i	0.92	.	.	.	-4	106
O=C(NNc1nc2ccccc2s1)C1CC1	i	0.86	-2.6	.	.	0	103
COC(=O)NNC(=O)c1cccc(C)c1	i	0.81	-0.6	.	.	-9	97
CCOC(=O)N1CCN(c2nc(C)c3c(n2)CCCC3=O)CC1	i	0.9	-1.0	.	.	1	84

Reprinted at random: 4 records from the list, in no set order.
SMILES	HSV augment	HSV augment primary fold	GALR2 agonist	INS promoter inh	INS promoter inh cell count	PKD1 inh	RGS16-Gao HTS
N=C1C(=O)OCC1c1ccccc1NC(=O)CN1CCOCC1 (stereo not given)	i	0.91	-0.8	20	103	-4	106
Cc1nc2ccccc2c(=O)n1/N=C/c1ccco1	i	0.96	.	.	.	3	98
Cc1noc(C)c1CSc1ncnc2sc3c(c12)CCC3	i	0.94	-0.7	.	.	-6	113
O=C1C2C(C(=O)N1c1ccncc1)C1C=CC2C12CC2 (stereo not given)	i	0.94	-0.8	.	.	-4	109
